HNF4A DNA FP = change in binding of human HNF4A to DNA, primary screen, biochemical, fluorescence polarization, FITC-DNA; AID 1224865, 2016; 1 h; activity change, % at 10 µM; Hepatocyte nuclear factor 4-alpha (Homo sapiens), P41235; actives 0.3% (n = 360,000); in the data active = activity change above about 30%, passing the limit was not always enough;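 also: controls were the assay level and a saturating level of protein; the project sought stronger binding though the title names inhibitors; some compounds called inactive have numbers as strong as hits; positive values seem to mean higher polarization but the record does not say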
Target sequence (P41235 whole entry, looked up): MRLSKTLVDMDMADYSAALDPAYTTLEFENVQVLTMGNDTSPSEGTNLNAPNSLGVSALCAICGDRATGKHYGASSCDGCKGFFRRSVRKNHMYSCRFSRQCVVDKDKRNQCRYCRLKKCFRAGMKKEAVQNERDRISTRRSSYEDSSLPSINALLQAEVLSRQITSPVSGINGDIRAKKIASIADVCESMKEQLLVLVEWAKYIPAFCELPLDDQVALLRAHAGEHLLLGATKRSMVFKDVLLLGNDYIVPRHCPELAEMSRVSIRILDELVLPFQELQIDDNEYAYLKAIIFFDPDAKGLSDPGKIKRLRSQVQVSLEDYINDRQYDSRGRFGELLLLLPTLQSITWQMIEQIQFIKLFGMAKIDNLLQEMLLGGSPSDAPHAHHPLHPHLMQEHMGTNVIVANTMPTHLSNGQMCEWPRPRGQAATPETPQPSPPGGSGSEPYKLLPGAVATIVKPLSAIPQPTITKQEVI
B2AR ag = beta2AR agonists driving receptor internalization, primary screen, cell-based, FAP fluorogen, flow cytometry; actives 0.43% (n = 340,000); response, % (no concentration beside the values); Beta-2 adrenergic receptor (Homo sapiens), P07550; AID 504454, 2011; Am2.2-beta2AR cells; reference of the scale not given here;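 active = response above a set limit, near 3 SD of response in nonfluorescent compounds, cut at about 42% in these data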;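 also: stock transfer was 100 nL into about 11 µL; a reference agonist was the positive control; negative values mostly stem from fluorescent compounds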
UCH37 inh = inhibitors of human UCH37 deubiquitinase, primary screen, biochemical, Ub-AMC cleavage, fluorescence. AID 588478, 2011. actives 0.33% (n = 330,000). purified proteasome/UCH37. inhibition, % (concentration not given with the values);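 active = mean of two replicates above 20%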;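 also: 0% = compound-free wells with enzyme and 100% = wells lacking proteasome; stock transfer was 100 nL into about 20 µL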
Target sequence (Q9Y5K5 whole entry, looked up): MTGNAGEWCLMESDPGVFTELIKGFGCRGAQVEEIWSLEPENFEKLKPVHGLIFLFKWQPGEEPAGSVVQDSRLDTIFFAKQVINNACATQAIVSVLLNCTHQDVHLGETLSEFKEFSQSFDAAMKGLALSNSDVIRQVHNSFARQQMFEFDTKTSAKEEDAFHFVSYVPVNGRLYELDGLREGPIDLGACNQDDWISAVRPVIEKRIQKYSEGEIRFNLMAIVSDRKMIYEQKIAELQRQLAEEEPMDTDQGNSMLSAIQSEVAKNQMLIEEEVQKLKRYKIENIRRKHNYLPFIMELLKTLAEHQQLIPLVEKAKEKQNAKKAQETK
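Test system – human UCH37 enzyme supplied as purified proteasome complex · Incubation – 30 min preincubation with enzyme, 25 min cleavage at room temperature · Detection – AMC fluorescence from Ub-AMC cleavage, excitation 355 nm, emission 460 nm · Benchmarks – no-proteasome wells (full inhibition) and compound-free wells (no inhibition)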
Ecoli rRNA inh = reduced GFP signal of wild-type E. coli, primary screen, bacterial rRNA inhibitor project, GFP/RFP fluorescence, OD600, single point. actives 1.6% (n = 350,000). E. coli WT GFP vs humanized-ribosome RFP mutants, 24 h; stronger effect = lower value; DMSO median 0, no signal -100. GFP signal change (wild-type ribosome), % (test concentration not listed). AID 720706, 2013;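 active = significant combined selectivity score with lowered wild-type GFP, culture density cut under 30%, mutant RFP and density less affected; inactive = any of these conditions unmet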; also: one replicate is shown; some compounds called inactive have numbers as strong as hits
Ecoli growth = E. coli growth inhibition, primary screen, OD600; Escherichia coli growth, 23 h; stronger effect = lower value; OD600 absorbance (concentration not given with the values); actives 0.21% (n = 330,000); AID 1053175, 2014;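 active = OD600 absorbance below the run mean of sample wells minus 3.6 SD, in any replicate, cut at about 0.56 in these data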;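 also: stock transfer was 300 nL into about 60 µL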
ALR inh = inhibitors of human ALR sulfhydryl oxidase, primary screen, biochemical, H2O2 detection, HRP-luminol luminescence, single point; actives 3.8% (n = 290,000); FAD-linked sulfhydryl oxidase ALR (Homo sapiens), P55789; purified ALR, DTT oxidation; inhibition, % (test concentration not listed);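 active = mean and each replicate at 75% or more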;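 also: stock transfer was 7.5 nL into about 7.5 µL; 0% = neutral wells and 100% = wells with inactivated enzyme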
FGF22 binding = binders of human FGF22 protein, primary screen, FGF22 synaptogenesis inhibitor project, biophysical, thermal shift, single point. Fibroblast growth factor 22 (Homo sapiens), Q9HCT0. recombinant FGF22 thermal shift, SYPRO orange fluorescence; percent of sucrose octasulfate shift, DMSO zero. calls only at 9.99 µM. actives 1.5% (n = 340,000). AID 651658, 2012;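 active = melting point raised past a set limit in the mean and every replicate; three in four hits are not shown here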
Target sequence (Q9HCT0 whole entry, looked up): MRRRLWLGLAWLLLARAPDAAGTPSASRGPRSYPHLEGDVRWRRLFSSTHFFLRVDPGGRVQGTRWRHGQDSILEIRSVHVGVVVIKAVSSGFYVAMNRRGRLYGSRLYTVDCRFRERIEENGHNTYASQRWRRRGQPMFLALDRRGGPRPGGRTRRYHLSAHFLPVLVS
Ecoli rRNA inh OD600 = second read-out of Ecoli rRNA inh, no call of its own (marks repeat the call); OD600 change, %; measured here: OD600 growth;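 optical density of the mix in the first replicate; 0 = DMSO median and -100 = no signal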
Ecoli rRNA inh RFP = further read-out of Ecoli rRNA inh, marked with its call; RFP signal change, %; measured here: RFP humanized mutant strains;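 first replicate; 0 = DMSO median and -100 = no signal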
Starred values were filed as active, the others as inactive; i = inactive; · = not tested or not shown. These rows are one share of the data (hit frequency here may not be typical).

Results follow in this order: HNF4A DNA FP	B2AR ag	UCH37 inh	Ecoli rRNA inh	Ecoli rRNA inh OD600	Ecoli rRNA inh RFP	Ecoli growth	ALR inh	FGF22 binding
- O=S(=O)(NCC1CCCO1)c1ccc(S(=O)(=O)N(Cc2ccc(F)cc2)Cc2ccco2)cc1 (stereo unspecified)
→ -1.0	2.8	3.0	·	·	·	0.626	0.0	·
- Cc1c(NC(=O)CCCCCN2C(=O)c3ccccc3C2=O)c(=O)n(-c2ccccc2)n1C
→ 1.8	-10.6	0.6	·	·	·	0.696	·	·
- CCn1c(SCC(=O)N=Nc2c(O)[nH]c3ccccc23)nc2ccccc21
→ 0.2	-16.7	·	·	·	·	·	-2.0	·
- COC(=O)CCCn1cc(CN(C)C2CN(Cc3cn(CCCC(=O)OC)nn3)S(=O)(=O)C2)nn1 (stereo unspecified)
→ 3.0	·	·	12.8	12.1	4.2	·	·	i
- COc1ccccc1N(CC(=O)NCC1CCCO1)C(=O)CNS(=O)(=O)c1ccc(Cl)cc1 (stereo unspecified)
→ -1.1	-0.4	0.6	-4.0	-2.5	-4.1	0.635	-9.3	i
- O=Cc1c(Sc2ccccn2)nc2ccccn2c1=O
→ 4.0	-3.1	8.2	·	·	·	0.698	97.5*	·
- COC(=O)C(CCSC)NC(=O)c1cc2c(n(-c3ccccc3)c1=O)CC(C)(C)CC2=O (stereo unspecified)
→ -1.1	-3.5	-2.9	·	·	·	0.713	-7.8	·
- CCOC(=O)c1c(-c2ccc(OC)cc2)csc1NC(=O)CSc1ccccc1
→ 1.1	-1.4	1.6	·	·	·	0.782	-0.3	·
- CCC(C)c1cc(S(=O)(=O)N2CCOCC2)ccc1OC (stereo unspecified)
→ -0.5	-2.4	1.2	·	·	·	0.713	·	·
- CCCc1nc2ccccc2c(C(=O)OCC(=O)Nc2cccc(S(=O)(=O)N3CCOCC3)c2)c1CC
→ 1.3	20.1	3.4	·	·	·	0.698	-1.2	·
- Cc1cccc(C(=O)N2CCC(c3nc(-c4ccc(S(=O)(=O)N5CCOCC5)cc4)no3)CC2)c1
→ 3.6	5.2	2.5	·	·	·	0.707	-4.1	·
- CCOC(=O)c1ccc(NC2=CC(=O)CC(c3ccco3)C2)cc1 (stereo unspecified)
→ -3.7	5.7	7.0	-22.4*	-10.1*	1.3*	0.693	-0.4	i
- CN(C)c1ccc(C(CNC(=O)c2ccc(F)cc2)c2c[nH]c3ccccc23)cc1 (stereo unspecified)
→ -2.1	-2.2	5.5	4.6	2.5	0.2	0.724	2.3	i
- CCc1nnc(NC(=O)COc2ccc3ccccc3c2)s1
→ -0.2	-13.1	2.9	-0.7	1.2	-2.7	0.656	-26.3	i
- COc1cc2ncnc(NCc3ccccc3)c2cc1OC
→ 1.7	-4.9	-2.1	·	·	·	0.761	-4.9	·
- CCN(CC(=O)Nc1ccccc1OC)CC(=O)Nc1c(Cl)ccc(C)c1Cl
→ 1.2	4.8	-0.9	-26.0*	-11.7*	1.9*	0.713	·	·
- CC(C)(C)C(=O)CSc1nc(N)cc(=O)[nH]1
→ -1.3	0.0	1.2	3.4	-0.5	-3.4	0.699	13.1	i
- CN1CCN(S(=O)(=O)c2ccc(NC(=O)c3ccc([N+](=O)[O-])cc3)cc2)CC1
→ 8.6	-2.4	4.1	10.0	2.2	2.1	0.649	-20.9	i
- COc1ccc(C(NC(=O)c2cccc(F)c2)c2ccccc2)cc1 (stereo unspecified)
→ 0.3	2.0	5.2	·	·	·	0.719	-4.9	·
- CCC(CC)COC(=O)C1=C(C)NC(=O)NC1c1ccc(OC)cc1 (stereo unspecified)
→ -0.8	-5.8	0.4	-0.4	-10.5	-1.6	0.679	·	i
- COc1cc(C(=O)O)nc2ccccc12
→ 4.8	13.4	12.6	·	·	·	0.671	-6.8	·
- CCCn1c(=N)c(C(=O)NC2CCCC2)cc2c(=O)n3cccc(C)c3nc21
→ 2.1	-6.2	-408.5	·	·	·	0.711	-4.4	·
- COc1ccc2ccccc2c1/C=N/NC(=S)Nc1cc(S(=O)(=O)N2CCOCC2)ccc1N1CCOCC1
→ 4.1	0.3	·	·	·	·	·	-14.4	·
- Cc1cccc(-c2nc(CC(=O)Nc3cccc(S(=O)(=O)NC4=NCCC4)c3)cs2)c1
→ 5.8	8.8	6.7	-14.3	-23.6	0.9	0.689	-0.7	i
- Cc1ccc(NC2CCCN(C(=O)c3ccc(C)c(N4CCNC4=O)c3)C2)cc1C (stereo unspecified)
→ 4.4	-4.5	1.4	·	·	·	0.688	93.0*	·
- O=C(NCc1ccncc1)c1csc([C@@H]2O[C@H](CO)[C@@H](O)[C@H]2O)n1
→ 5.4	·	·	17.1	21.4	2.2	·	·	i
- CCOC(=O)C1CCN(C(=O)C2CCN(S(=O)(=O)c3cccc4nsnc34)CC2)CC1
→ -1.9	2.9	6.1	3.9	6.4	-3.2	0.683	-1.0	i
- CCOC(=O)CCCCC(=O)c1[nH]c(=O)[nH]c1CSCCO
→ -2.3	20.6	-0.9	3.7	7.9	1.6	0.645	44.0	i
- COC(=O)c1[nH]nc2c1C(=O)N(C1CCCCC1)C2=O
→ 2.1	13.5	0.2	·	·	·	0.786	·	·
- O=C(OCCCN1CCCC1)C1(c2ccccc2)CCCC1
→ 3.5	3.7	4.3	·	·	·	0.694	·	·
- COCCSc1nnc(NC(=O)C(C)(C)C)s1
→ -3.7	-3.5	2.6	·	·	·	0.658	-1.2	·
- O=C(c1ccccc1)C1C(=O)c2ccccc2C1=O
→ 2.7	-6.2	30.6*	36.6	-17.0	26.4	0.615	6.6	i
- CC1CCc2cc(F)ccc2N1C(=O)c1ccc2c(c1)OCO2 (stereo unspecified)
→ 2.8	0.5	2.3	·	·	·	0.693	·	·
- O=C1NN(c2ccc(Cl)cc2)C(=O)/C1=C\c1ccc(-c2cccc(C(=O)O)c2)o1
→ -20.4	8.8	6.0	·	·	·	0.738	·	i
- Cc1cc(-c2cccc([N+](=O)[O-])c2)nc2ccccc12
→ 0.9	3.2	0.6	-0.5	5.5	1.2	0.683	-2.0	i
- CCc1nn(C(CC)C(=O)NCc2cccc(OC)c2)c(=O)c2cc3occc3n12 (stereo unspecified)
→ -1.2	-2.4	2.6	-1.8	-4.7	2.3	0.686	-2.0	i
- CS(=O)(=O)N(CCc1ccccc1)CC(=O)NCC1CCCO1 (stereo unspecified)
→ 3.2	7.0	1.9	·	·	·	0.662	-1.3	·
- O=C1c2cccc3c([N+](=O)[O-])ccc(c23)C(=O)N1c1ccc(Cl)cn1
→ -34.9	34.6	-54.5	·	·	·	0.678	33.8	·
- CCN(c1ccccc1)S(=O)(=O)c1ccc(Cl)c(NC(=O)CSc2nncs2)c1
→ -0.9	0.8	3.1	·	·	·	0.624	-0.5	·
- Fc1ccc(-c2nn(-c3ccccc3)cc2CNCc2ccccc2)cc1
→ 0.4	44.2*	0.4	-38.0	-69.5	1.8	0.632	1.9	·
- COc1ccc(CN2CCS(=O)(=O)CC2)cc1OC
→ 2.2	-2.3	-1.8	11.8	12.1	-2.1	0.682	-3.1	i
- COc1ccc(NC(=O)CN(Cc2ccco2)Cc2ccco2)cc1S(=O)(=O)N1CCCCC1
→ 1.2	3.7	2.2	-7.9	-17.8	8.3	0.713	-2.7	i
- Cc1cc(S(=O)(=O)Nc2noc3ccccc23)ccc1F
→ 0.2	2.1	3.0	4.7	2.6	-0.4	0.635	-9.4	i
- COc1ccc(Cl)cc1-c1cc(C(=O)N[C@H](C)c2ccccc2)[nH]n1
→ -0.7	·	·	-5.7	-25.6	4.4	·	·	i
- CCO[C@H]1OC(C(=O)N2CCCCCCC2)=C[C@@H](c2csc3ccccc23)[C@@H]1CCCO
→ 0.5	2.3	6.0	·	·	·	·	-2.4	·
- Cc1ccc(NC(=S)NC2CCCC2)cc1C
→ -2.3	-3.8	2.6	·	·	·	0.666	-2.5	·
- CC(=O)c1ccc(N2CCCCCC2)c(F)c1
→ 0.1	-5.7	6.8	·	·	·	0.678	-10.2	·
- O=C(O)CCCn1c(=S)[nH]c2c(sc3ccc([N+](=O)[O-])cc32)c1=O
→ -0.4	0.6	10.5	2.6	6.5	0.1	0.691	·	i
- O=C(NC(=S)N1CCc2ccccc21)c1ccccc1Br
→ -0.6	-13.6	10.5	·	·	·	0.627	-2.3	·
- CC1CN(CCc2ccccc2)c2nc3c(c(=O)[nH]c(=O)n3C)n2C1 (stereo unspecified)
→ 3.1	1.3	0.2	·	·	·	0.688	51.5	·
- NC(=O)N/N=C\c1cc(Br)ccc1O
→ 1.4	5.0	·	-26.6	-31.4	-9.8	·	5.3	i
- CCCC(C)NC(=O)COC(=O)c1ccc(Cl)c(S(N)(=O)=O)c1 (stereo unspecified)
→ -1.2	5.2	-40.4	·	·	·	0.747	-12.6	·
- O=C(CCCOc1ccc(Cl)cc1Cl)Nc1ccncc1
→ 1.1	-18.4	0.6	·	·	·	0.57	2.3	·
- CCOC(=O)C1=C(C)NC(SCC(=O)O)=NC1c1ccccc1 (stereo unspecified)
→ ·	·	4.7	·	·	·	0.701	1.3	·
- CCOC(=O)C1=C(C)N(C)C(=O)C1CC(=O)O (stereo unspecified)
→ -1.0	2.9	1.9	·	·	·	0.665	1.7	·
- C/C(=N\O)c1ccc2c3c([nH]c2c1)CCCC3
→ -8.9	-1.0	·	·	·	·	·	97.4*	·
- COc1cc(C#Cc2c(-c3cncn3C)n(C)c3ccc(-c4ccc(OC)nc4)cc23)cc(OC)c1
→ -0.4	18.5	-64.4	6.6	11.8	-3.2	0.654	1.7	i
- CC1(C)C(C=C(Cl)Cl)C1C(=O)N(Cc1ccc(Cl)cc1)C1CCS(=O)(=O)C1 (stereo unspecified)
→ 1.0	-2.0	5.7	-6.2	-8.7	1.8	0.707	-6.3	i
- Cc1cc(Nc2ccc(C)c(C)c2)n2nc(C)nc2n1
→ 4.6	-3.3	2.7	3.0	-2.5	-0.7	0.725	1.4	i
- Cc1cc(NC(=O)C2CCCCC2C(=O)O)ccc1NC(=O)c1ccccc1 (stereo unspecified)
→ 1.9	3.6	2.3	7.2	-5.1	0.2	0.706	·	i

Remaining list, next part
Results follow in this order: HNF4A DNA FP	B2AR ag	UCH37 inh	Ecoli rRNA inh	Ecoli rRNA inh OD600	Ecoli rRNA inh RFP	Ecoli growth	ALR inh	FGF22 binding
- CC(=O)N1CCN(CC(=O)Nc2c(Cl)cccc2Cl)CC1
→ 4.4	-1.5	1.0	·	·	·	0.729	·	·
- NC(=Nc1ccc(Br)cc1)c1ccccc1
→ 1.9	1.5	5.4	6.3	5.7	-0.7	0.669	-5.8	i
- CCN(CC(=O)Nc1ccc(NC(C)=O)cc1)C(=O)/C=C/c1c(C)nn(-c2ccc(F)cc2)c1Cl
→ 2.8	-0.3	7.4	-0.9	10.6	2.9	0.704	·	i
- Cc1ccccc1NC(=S)NCC1CCN(C(C)c2ccccc2)C1 (stereo unspecified)
→ 0.8	-2.0	2.6	1.2	-1.0	-5.0	0.676	6.3	i
- CN(C)C(CNC(=O)c1cccc(S(=O)(=O)Nc2ccc(Br)cc2)c1)c1ccco1 (stereo unspecified)
→ 0.4	-2.0	-7.9	-3.3	-33.5	-3.3	0.625	·	i
- CC1CCCCC1NC(=O)CCn1c(=S)[nH]c2ccccc2c1=O (stereo unspecified)
→ 3.2	·	·	10.6	15.5	-1.6	·	·	i

Source: PubChem BioAssay (several laboratories)
